RE007 growth inh – less growth of the S. pombe RE007 Vpr strain. S. pombe RE007 Vpr strain, BacTiter-Glo ATP luminescence, 24 h; control for the full effect not named in the record. Potency, µM (series often up to 92.2 µM), for the others: at the highest dose activity change, negative = less growth. 360,000 tested, 0.21% active. AID 651644; active = well fitted falling curve with a large enough effect; inconclusive = small, poorly fitted or top-dose-only effect; inactive = no such curve, though single readings can be large or run the other way;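 further: on the % scale 0 is the no-effect control and ±100 the full control effect; nearly all actives have a fitted effect of over 50% in size; the assay follows cell death caused by Vpr and the record does not say whether a fall means rescue or toxicity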
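Fission yeast strain RE007, carrying one chromosomally integrated HIV-1 vpr copy, was seeded at OD 0.01 in PMG+AL medium with 23 nL pinned compound. After 24 h at 30 °C and 99% humidity, viability was read by BacTiter-Glo luminescence.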
2A StopGo – FMDV 2A StopGo reporter, luciferase signal; human cells with a luciferase reporter of 2A StopGo recoding; control for the full effect not named in the record; Potency, µM (top dose mostly 57.9 µM), inactives show at the top dose signal change, negative = less light; 410,000 tested, 1.2% active; AID 1159524; active = well fitted falling curve with a large enough effect; inconclusive = small, poorly fitted or top-dose-only effect; inactive = no such curve, though single readings can be large or run the other way; tested in HEK293T cells; further: on the % scale 0 is the no-effect control and ±100 the full control effect; nearly all actives have a fitted effect of over 45% in size; luciferase light after 4 h
SARS PLpro yeast – inhibitors of SARS-CoV papain-like protease in yeast | S. cerevisiae expressing SARS-CoV PLpro, growth rescue; control for the full effect not named in the record | Potency, µM (titrated, usually from 32.9 µM), without a hit: at the top dose activity, positive = growth rescue | 330,000 tested, 0.19% active; active means well fitted rising curve with a large enough effect; inconclusive means small, poorly fitted or top-dose-only effect; inactive means no such curve, though single readings can be large or run the other way; further: 0% is about no effect; nearly all actives have a fitted effect of over 55% in size; growth read by luminescence after 48 h
Lassa entry inh – blocks Lassa virus binding to or entry into cells; 300,000 tested, 1.2% active; Lassa virus pseudotype entry inhibition, cell reporter; control for the full effect not named in the record; AID 540256; Potency, µM (highest dose often 37.9 µM), inactives show top-dose activity change, negative = inhibition, actives largely listed as inhibitors; active means well fitted inhibition curve with a large enough effect; inconclusive means small, poorly fitted or top-dose-only effect, or effect the other way; inactive means flat fitted curve, though single readings scatter; tested in HEK293 cells; further: on the % scale 0 is the no-effect control and ±100 the full control effect; nearly all actives have a fitted effect of over 50% in size; luciferase read-out
NS1 inh – influenza NS1 inhibition. S. cerevisiae slowed by influenza A NS1, growth recovery by OD600. Potency, µM (top dose mostly 46.1 µM), without a hit: top-dose activity, positive = more growth. 270,000 tested, 0.4% active. AID 2326; active means well fitted rising curve with a large enough effect; inconclusive means small, poorly fitted or top-dose-only effect; inactive means no such curve, though single readings can be large or run the other way; further: nearly all actives have a fitted effect of over 50% in size
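Read-out: OD600 growth recovery of NS1-expressing budding yeast. Cells grown overnight at 30C in -URA glucose medium, washed, resuspended and diluted 1:100 in 2% galactose assay medium, pH 6.0. Same strain lacking NS1 served as positive control.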
MARV entry inh – Marburg virus entry inhibition; Potency, µM (series often up to 37.8 µM), for the others: at the highest dose activity change, negative = inhibition, hits mostly inhibitors; Marburg virus pseudotyped entry inhibition, cell reporter; control for the full effect not named in the record; about a third of the inactives were read at about 46 µM; AID 540276; 300,000 tested, 1.8% active; active = well fitted inhibition curve with a large enough effect; inconclusive = small, poorly fitted or top-dose-only effect, or effect the other way; inactive = flat fitted curve, though single readings scatter; tested in HEK293 cells; about a fifth of its hits are not listed in these tables; further: on the % scale 0 is the no-effect control and ±100 the full control effect; luciferase read-out
Cruzain inh Det – cruzain (T. cruzi) inhibition with detergent | P25779 | purified cruzain, Z-FR-AMC fluorescence, 0.01% Triton | Potency, µM, for inactives: max response, negative = inhibition, usual class: inhibitors | 200,000 tested, 0.43% active | AID 1478;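 further: plate controls were neutral wells for no effect and buffer without enzyme for full effect; nearly all actives have a fitted effect of over 40% in size; top concentration of the series not given in the record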
Target sequence (P25779 123-467 limits assumed): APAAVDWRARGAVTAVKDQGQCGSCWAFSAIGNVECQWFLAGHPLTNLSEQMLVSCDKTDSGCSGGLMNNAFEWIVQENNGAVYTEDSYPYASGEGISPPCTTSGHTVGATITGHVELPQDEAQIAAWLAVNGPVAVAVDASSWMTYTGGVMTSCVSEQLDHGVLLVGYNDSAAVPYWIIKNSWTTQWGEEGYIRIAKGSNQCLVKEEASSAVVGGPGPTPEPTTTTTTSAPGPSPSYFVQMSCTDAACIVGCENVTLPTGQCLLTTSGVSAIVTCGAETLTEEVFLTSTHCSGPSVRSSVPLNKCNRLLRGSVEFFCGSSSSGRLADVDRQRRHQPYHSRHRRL
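Purified cruzain (1.5 nM final) was preincubated with compounds for 15 min at room temperature in 100 mM sodium acetate pH 5.5, 5 mM DTT, 0.01% Triton X-100. Reaction started with 2 uM Z-FR-AMC; AMC fluorescence change over 60 s gave activity.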
Cruzain noTriton – cruzain (T. cruzi) inhibition without detergent | 200,000 tested, 2.3% active | purified cruzain, Z-FR-AMC fluorescence, no detergent | P25779 | AID 1476 | Potency, µM, for the others: max response, negative = inhibition, hits mostly inhibitors;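 further: plate controls were enzyme without inhibitor for no effect and buffer without enzyme for full effect; nearly all actives have a fitted effect of over 40% in size; top concentration of the series not given in the record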
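Detergent-free condition (0.00005% Triton X-100) in acetate buffer pH 5.5 with DTT. 1.5 nM enzyme and compound were pre-mixed 15 min, then 2 uM Z-FR-AMC substrate added; reaction progress from fluorescence change between first and third reads (60 s).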
Active calls of the source: *; ? = inconclusive; / = no result given; & = joins results of further samples; [ ] = remark or other dose. Unless noted, the call rests on the fitted dose curve; in most records, active means well fitted curve in the direction sought with a large enough effect; inconclusive means small, poorly fitted or top-dose-only effect, or another doubt; inactive means no such curve, though single readings can be large; an effect the other way counts as inactive or inconclusive. Potency means the concentration at half of the fitted maximal effect.

SMILES	RE007 growth inh	2A StopGo	SARS PLpro yeast	Lassa entry inh	NS1 inh	MARV entry inh	Cruzain inh Det	Cruzain noTriton
Oc1ccccc1N=Cc1sc2ccccc2c1Cl	?	8%	-57%	-28%	-36%	?	-9.8%	1%
c1ccc(N2CCN(c3ncnc4sc5c(c34)CCC5)CC2)cc1	12%	-23%	-2%	-14%	-49%	?	-3.6%	-4%
Cn1c(NCCCO)nc2ccccc21	-3%[3.69 µM]	-6%	7%	0%	-2%	26%	2.2%	-2%
C[C@H](NC(=O)C1CC(=O)N(c2ccc3c(c2)OCO3)C1)C(=O)NC1CCCCC1 (stereo not given in full)	-14%	-16%	21%	/	-5%	/	/	/
CCCc1cc(=O)[nH]c2nnc(SCC(=O)Nc3nnc(CC)s3)n12	16%	-14%	3%	3%[46.1 µM]	/	29%	/	/
CC(=O)c1ccc(N2CCN(C(=O)/C=C/c3ccc(S(=O)(=O)N4CCOCC4)cc3)CC2)cc1	5%	?	0%	/	13%	?	/	/
Cc1cc(C)n(CC(O)COCc2ccccc2)n1 (stereo not given)	-20%	-5%	6%	20%	3%	-7%	-1.9%	2%
N#CCc1ccc(NC(=O)c2ccc(CN3CCc4ccccc4C3)cc2)cc1	-12%	?	0%	/	1%	/	/	/
O=C(CSCc1ccccc1Br)Nc1ccccc1	-13%	50%[activator]	-6%	/	-44%	/	/	/
CC(=O)Nc1ccc(-c2nnc(SCC(=O)c3ccc([N+](=O)[O-])cc3)o2)cc1	/	-6%	/	-1%[46.1 µM]	/	23%[46.1 µM]	-1.7%	0%
Cc1csc(SCCn2c(N3CCN(c4ccccc4)CC3)nc3c2c(=O)[nH]c(=O)n3C)n1	5%	-30%	6%	-25%	-24%	-23%&-23%	3.9%	?
O=C(N/C(=C/c1ccco1)C(=O)N1CCOCC1)c1cccs1	16%	2%	1%	15%[46.1 µM]	4%	-3%[46.1 µM]	/	/
CC(=NNC(=O)COc1cccc(C)c1)c1cccnc1	14%	18%	-2%	2%	/	?	/	/
CCc1nc(Sc2nnnn2-c2ccccc2)c2c3c(sc2n1)CCCC3	-8%	?	-12%	?	10%	2%	-3.4%	?
Cc1ccccc1NC(=O)Cn1c(=O)n(CCc2ccccc2)c(=O)c2sc3ccccc3c21	/	-1%	/	-3%[46.1 µM]	/	0%[46.1 µM]	2.5%	3%
COC(=O)c1cc(NC(=O)CN(c2ccccc2)S(=O)(=O)N(C)C)ccc1Cl	/	0%	/	-13%[46.1 µM]	/	?	-8.0%	-3%
CNC(=O)C1CCC(=O)N1Cc1ccccc1Cl (stereo not given)	8%	10%	0%	?	2%	-15%	0.6%	0%
O=S(=O)(NCC(c1cccnc1)N1CCN(c2ccccc2)CC1)c1cc(F)ccc1F (stereo not given)	-11%	/	-11%	-24%	-56%	4%&-1%	-5.4%	-9%
O=C(Cc1cccc([N+](=O)[O-])c1)NCc1nc2cccnc2n1Cc1ccc(F)cc1	/	-3%	/	-14%[46.1 µM]	/	/	-2.5%	12%
CCO[C@H]1OC(C(=O)O)=C[C@@H](C2CCCCC2)[C@@H]1CCCO	16%	3%	0%	/	-1%	/	/	/
COC(=O)c1sc(NC(=S)NC(=O)c2ccc(C)cc2)nc1C	5%	42%[activator]	-1%	6%	0%	-12%[14.2 µM]	/	/
O=C(CSc1nnc(CCCN2C(=O)c3cccc4cccc(c34)C2=O)n1-c1ccccc1)N1CCN(CCO)CC1	-17%	-12%	0%	8%	0%	-11%	-8.5%	-1%
Cc1cc(-c2cccs2)c2c(N)c(C(=O)c3ccc4c(c3)OCO4)sc2n1	-31%	-13%	22%	-4%	27%	-1%	-6.5%	25µM*
C/C(=N\N=C(/N)SC1CC(=O)N(c2ccc(Br)cc2)C1=O)c1cccs1 (stereo not given)	-1%	4%	-23%	-28%	11%	-3%	-7.6%	?
COc1ccc(F)cc1S(=O)(=O)NCc1ccccc1	-10%	79%[activator]	7%	1%	-16%	?	-3.5%	-1%
O=C(O)C1CC=CCC1C(=O)NCc1ccc(Cl)c(Cl)c1 (stereo not given)	-27%	-16%	/	3%	/	-8%[46.1 µM]	/	/
CCOc1ccccc1C(=O)NC1CCN(CC(=O)Nc2cc(OC)ccc2OC)CC1	-8%	-23%	-6%	/	-6%	/	/	/
S=C1NC2(CCCCC2)NN1c1ccccc1	111%	14%	-3%	-28%[46.1 µM]	/	?	/	/
CSc1ncc(Cl)c(C(=O)Nc2ccc(S(=O)(=O)N3CCC(C)CC3)cc2)n1	/	?	/	?	/	?	-8.7%	-5%
CCOc1ccc(NC(=O)CCS(=O)(=O)c2ccc3c(c2)n(C)c(=O)c(=O)n3C)cc1	/	-16%	/	0%[46.1 µM]	/	-8%[46.1 µM]	-3.8%	8%
O=C(CNC(=O)c1ccco1)NCC(=O)OCc1ccc(C(=O)Oc2ccc(Cl)cc2)cc1	0%[3.69 µM]	2%	6%	0%	2%	2%	1.7%	?
CC1CC(Nc2ccccc2)=NC1(C)C (stereo not given)	11%	10%	-8%	-1%	-1%	3%	-1.9%	-10%
COc1cccc(NC(=O)CSc2nnc3[nH]c(=O)cc(-c4ccccc4)n23)c1	/	27%	/	4%[46.1 µM]	/	/	-2.3%	-12%
C[C@@H]1C=C[C@](Cc2ccccc2)(C(=O)NCC2CC2)N1C(=O)c1ccccc1	0%	63%[activator]	24%	?	2%	17%	-0.3%&1.4%	9%&-3%
O=C(O)C1=CC2c3ccccc3C1c1ccccc12	-17%	-11%	0%	-26%	-3%	25%	/	/
CC(C)n1nnnc1-c1cccc(Cl)c1	-11%	0%	-3%	20%[14.3 µM]	?	0%	-2.4%	-1%
CCOC(=O)C1=C(C)Nc2ncnn2C1/C=C/c1ccccc1 (stereo not given)	-8%	0%	/	-7%	3%	?	0.9%	?
COc1ccc(OC)c(NC(=O)CC2SC(=Nc3ccccc3)N(CCc3ccccn3)C2=O)c1 (stereo not given)	-5%	-16%	-16%	11%	5%	?	-4.4%	?
COc1ccc(CCNC(=O)C(=O)NCC2CCCN2S(=O)(=O)c2ccccc2)cc1 (stereo not given)	7%	-14%	1%	?	/	?	/	/
Cn1cc(S(=O)(=O)c2ccccc2)c(=O)c2cc(F)c(N3CCCCC3)cc21	/	-6%	/	-16%[46.1 µM]	/	/	-1.8%	-10%
CCc1ccc(NC(=O)C(=O)NCCc2sc(-c3ccc(OC)c(OC)c3)nc2C)cc1	/	-10%	/	16%[46.1 µM]	/	/	-0.5%	-6%
O=C(Nc1ccccc1)Nc1ccc(Cl)nc1Cl	1%	-1%	/	?	/	-2%[46.1 µM]	/	/
N#C/C(=C(/O)C(Cl)(Cl)Cl)c1nc2ccccc2[nH]1	18%	?	-2%	/	-2%	/	/	/
O=c1ccc2cc(S(=O)(=O)NCCCc3ccccc3)ccc2[nH]1	-9%	-24%	1%	/	-7%	0%	/	/
CC(=O)NCCNc1nc2c(-c3cccc(C)c3)nnn2c2ccc(Cl)cc12	/	-7%	/	14%[46.1 µM]	/	11%[46.1 µM]	-0.3%	5%
COc1ccc(NC(=S)N2CCC(c3ccc(C)cc3)C2)cc1 (stereo not given)	17%	21%	-1%	11%[46.1 µM]	-1%	?	/	/
C[C@@H](O)[C@@H]1NC(=O)c2cc([N+](=O)[O-])cc(I)c2NCC[C@@H](C(N)=O)NC(=O)CNC1=O	-4%	-5%	11%	1%	-6%	2%	-5.9%	2%
Cc1ccccc1CNC(=O)C(=O)NCC(c1ccc2c(c1)OCO2)N1CCOCC1 (stereo not given)	/	-3%	/	-2%[46.1 µM]	/	/	-0.7%	-5%
Cc1cccc(C)c1N1CCN(C(=O)c2ccc3c(c2)OCO3)CC1	8%	-15%	-3%	?	1%	-3%	/	/
CC1CCCN(C(=O)CN2CCN(C(=O)c3ccco3)CC2)C1 (stereo not given)	6%	17%	0%	12%	-1%	?	2.5%	6%

Following part:
SMILES	RE007 growth inh	2A StopGo	SARS PLpro yeast	Lassa entry inh	NS1 inh	MARV entry inh	Cruzain inh Det	Cruzain noTriton
O=C(CSc1nnc(-c2ccc(F)cc2)n1CC1CCCO1)NCc1ccco1 (stereo not given)	1%	-6%	5%	-6%	7%	12%	/	/
NC(=S)Nn1c(-c2ccccc2)nc2ccccc2c1=O	0%	-24%	12%	1%	8%	-16%	-2.5%	-9%
O=C(c1ccccc1N(Cc1ccccc1)S(=O)(=O)c1ccccc1)N1CCOCC1	6%	-3%	-5%	-5%	-16%	-6%[46.1 µM]	/	/
CCOc1ccc(NC(=O)c2cnc(N3CCCC3)nc2C)cc1	/	-16%	/	16%[46.1 µM]	/	/	1.1%	-1%
O=C(CSc1nnc(-c2ccc(Cl)cc2)n1Cc1ccco1)NCc1ccc2c(c1)OCO2	-10%	-14%	/	0%	-10%	?	-3.7%	4%
CCOC(=O)c1ccc(NC(=O)CC2SC(=NC)N(C)C2=O)cc1 (stereo not given)	5%	-5%	0%	2%	-33%	1%	6.5%	-4%
CCOC(=O)C1CCN(c2c(NCc3ccc(C(=O)NCCOC)cc3)c(=O)c2=O)CC1	-16%	-13%	3%	-3%	-1%	?	-2.9%	-16%
COc1cccc(NC(=O)CN(C)C(=O)COc2ccc3ccccc3c2)c1	3%	-1%	11%	3%	-5%	?	-6.8%	14%
N#C/C(=C\Nc1ccc2c(c1)OCCO2)C(=O)NCc1ccco1	-10%	26%	0%	-30%	-3%	-4%[46.1 µM]	/	/
CC(=O)Nc1cc(OC(C)=O)c2nonc2c1OC(C)=O	-9%	?	-16%	?	7%	?	-8.2%	-16%
CCN1CCN(c2nc3ccccn3c(=O)c2/C=C(\C#N)S(=O)(=O)c2ccccc2)CC1	2%	-1%	1%	?	3%	-8%[46.1 µM]	/	/
COC(=O)c1cc(OC)c(OC)cc1NC(=O)Nc1ccc(OC)cc1	-1%	-3%	-5%	6%	3%	?	-0.2%	2%

Bioassay records from PubChem.
